UCH37 inh = human UCH37 deubiquitinating enzyme inhibition; Q9Y5K5; purified proteasome/UCH37, Ub-AMC cleavage fluorescence; inhibition, % (no concentration beside the values); actives 0.33% (n = 330,000); AID 588478;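 active means mean of two replicates above 20%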;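 further: 0% = compound-free wells with enzyme and 100% = wells lacking proteasome; stock transfer was 100 nL into about 20 µL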
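assay system = human UCH37 enzyme supplied as purified proteasome complex | amount = proteasome at 0.15 nM in the dispensed enzyme solution | schedule = 30 min compound-proteasome preincubation then 25 min substrate reaction, room temperature | measured by = fluorescence, ex 355 nm, em 460 nm | benchmarks = no-proteasome wells (full inhibition) and compound-free wells (no inhibition)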
Vif A3G = HIV-1 Vif–A3G interaction blockers – biochemical, TR-FRET, GST-Vif 1-94, biotin-A3G peptide, dose response retest, primary screen (AID 1117319). actives 0.57% (n = 260,000). inhibition, %, or IC50 in µM where a hit was titrated. TR-FRET GST-Vif / biotin-A3G peptide binding; higher % means a stronger effect; test concentration not given here; strong numbers were not always called active;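 active means above the screen mean plus three standard deviations and confirmed in dose response; inconclusive means results disagree or hit not tested in dose response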;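 further: Vif residues 1-94 fused to GST binding biotinylated APOBEC3G peptide 110-148; 0% = full assay without inhibitor and 100% = GST in place of GST-Vif; retest series ran down from 100 µM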
Ecoli growth = E. coli growth inhibition | actives 0.21% (n = 330,000) | Escherichia coli growth, OD600, 23 h; hits give low values | OD600 absorbance (no concentration beside the values);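 active means OD600 absorbance below the run mean of sample wells minus 3.6 SD, in any replicate, cut at about 0.56 in these data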;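 further: stock transfer was 300 nL into about 60 µL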
HNF4A DNA FP = change in binding of human HNF4 alpha to DNA; P41235; HNF4a-FITC DNA binding, fluorescence polarization, 1 h; activity change, % at 10 µM; actives 0.3% (n = 360,000); in the data active means activity change above about 30%, passing the limit was not always enough;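 further: controls were the assay level and a saturating level of protein; the project sought stronger binding though the title names inhibitors; some compounds called inactive have numbers as strong as hits; positive values seem to mean higher polarization but the record does not say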
Beta2AR agonist = agonists of human beta-2 adrenergic receptor inducing internalization; P07550; Am2.2-beta2AR cells, FAP receptor internalization, flow cytometry; reference of the scale not given here; response, % (test concentration not listed); actives 0.43% (n = 340,000);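 active means response above a set limit, near 3 SD of response in nonfluorescent compounds, cut at about 42% in these data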;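 further: stock transfer was 100 nL into about 11 µL; a reference agonist was the positive control; negative values mostly stem from fluorescent compounds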
LANA-H2B inh = blocks KSHV LANA binding to histone H2A/H2B; AID 2629; cell-free LANA-H2A/H2B peptide, fluorescence polarization; actives 0.6% (n = 320,000); inhibition, % (test concentration not listed); in the data active means inhibition mostly above about 10%, no sharp cut-off; inactive means mostly below about 6.7%;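 further: stock transfer was 7.5 nL into about 10 µL; 0% = median of vehicle wells and 100% = median of positive control wells; one replicate is shown; the record names a cut of 25% in any replicate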
Target sequence (Q9QR71 whole entry, looked up): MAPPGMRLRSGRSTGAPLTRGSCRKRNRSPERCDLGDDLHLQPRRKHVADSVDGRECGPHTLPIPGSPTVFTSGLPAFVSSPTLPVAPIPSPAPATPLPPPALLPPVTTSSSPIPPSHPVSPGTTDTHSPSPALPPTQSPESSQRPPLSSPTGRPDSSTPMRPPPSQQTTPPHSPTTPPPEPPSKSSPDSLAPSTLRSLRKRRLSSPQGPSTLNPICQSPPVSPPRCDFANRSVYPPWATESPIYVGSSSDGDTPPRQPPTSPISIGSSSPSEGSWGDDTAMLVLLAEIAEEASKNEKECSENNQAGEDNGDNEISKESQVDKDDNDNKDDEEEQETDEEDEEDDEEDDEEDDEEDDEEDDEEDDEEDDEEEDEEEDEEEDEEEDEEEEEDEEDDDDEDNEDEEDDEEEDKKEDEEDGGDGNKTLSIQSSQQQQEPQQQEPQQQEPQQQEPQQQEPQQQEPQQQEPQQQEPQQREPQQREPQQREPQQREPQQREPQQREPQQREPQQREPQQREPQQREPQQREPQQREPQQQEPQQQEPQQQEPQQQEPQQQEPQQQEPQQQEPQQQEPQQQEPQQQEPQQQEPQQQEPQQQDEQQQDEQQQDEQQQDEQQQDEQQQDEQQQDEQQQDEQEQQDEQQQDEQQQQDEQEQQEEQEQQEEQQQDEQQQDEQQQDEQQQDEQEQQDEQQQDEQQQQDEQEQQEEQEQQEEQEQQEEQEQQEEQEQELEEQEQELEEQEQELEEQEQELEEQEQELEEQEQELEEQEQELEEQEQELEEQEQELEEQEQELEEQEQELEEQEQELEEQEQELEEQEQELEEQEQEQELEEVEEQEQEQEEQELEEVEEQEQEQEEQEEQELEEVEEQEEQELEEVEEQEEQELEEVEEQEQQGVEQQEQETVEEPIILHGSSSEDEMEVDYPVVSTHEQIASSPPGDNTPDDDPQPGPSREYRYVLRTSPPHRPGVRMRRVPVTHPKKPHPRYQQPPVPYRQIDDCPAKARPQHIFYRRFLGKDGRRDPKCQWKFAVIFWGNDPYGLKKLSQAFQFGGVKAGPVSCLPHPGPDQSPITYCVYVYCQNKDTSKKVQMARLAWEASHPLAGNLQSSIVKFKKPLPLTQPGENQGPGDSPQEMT
A1 inh = inhibitors of the anti-apoptotic protein A1, read as caspase activation. actives 0.066% (n = 330,000). caspase activation, % (test concentration not listed). MEF A1-2A-BIM cells, Caspase-Glo 3/7 luminescence, 3 h; percent of clofoctol response, vehicle zero;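 active means over half of replicate activation scores above 10%, or exactly half above 10 with the replicate mean above 10; inconclusive means replicate mean below 10 yet half the replicates above 10; inactive means over half of replicates below 10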;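 further: wells of about 30 µL received 50 nL stock; many hits fall short of the cut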
* hit, by the source's call; ? = inconclusive; / = no result given. An unsorted share of the library; about 2.1% have a hit in one of these screens.

SMILES | UCH37 inh | Vif A3G | Ecoli growth | HNF4A DNA FP | Beta2AR agonist | LANA-H2B inh | A1 inh
Cc1ccccc1C(=O)Nc1ccccc1-c1nnn(CC(=O)Nc2ccc3c(c2)OCCO3)n1 | 0.1 | -2.1% | 0.733 | -3.7 | 3.3 | 7.1 | 0.3
COC(=O)c1cc(OC)c(OC)cc1NC(=O)C(C)Sc1ccc(C)cc1 (stereo unspecified) | 2.7 | 0.0% | 0.711 | -0.8 | 1.9 | -5.7 | -1.2
Cc1[nH]c2c(Cl)cccc2c(=O)c1CN1CCCC1 | 3.6 | 67.6% | 0.732 | 2.3 | 1.5 | 1.0 | -0.5
CCC1(CC)N=C(c2ccccc2)C(=S)N1 | 3.1 | -3.0% | 0.668 | 1.2 | 0.6 | 3.4 | -0.4
CCC(C)(C(=O)Nc1ccc2c(c1)OCCO2)N(C(C)=O)c1ccc(C(N)=O)cc1 (stereo unspecified) | 3.8 | 1.3% | 0.704 | 3.2 | -0.2 | 10.9 | 0.6
O=C(N/N=C/c1ccccc1F)c1cccc(NC(=O)c2ccccc2Cl)c1 | / | / | / | 0.6 | 4.6 | -9.0 | -0.1
CCn1c(=O)c2ccccc2n2c(SCC(N)=O)nnc12 | 3.2 | / | 0.685 | 0.2 | -10.9 | 0.1 | 0.0
O=C(CSc1nc2ccsc2c(=O)n1CC1CCC(C(=O)O)CC1)c1ccc(Cl)cc1 (stereo unspecified) | 1.9 | / | 0.699 | -1.9 | 13.6 | 3.9 | 0.6
COc1ccc(C(C(=O)NC2CCCCC2)N(Cc2cccnc2)C(=O)c2snc(C(N)=O)c2N)cc1 (stereo unspecified) | -52.2 | / | 0.681 | 2.5 | -15.1 | 0.4 | 0.3
CC1CCN(S(=O)(=O)c2ccc(S(=O)(=O)N3CCC4(CC3)OCCO4)cc2)CC1 | -3.3 | -5.5% | 0.69 | 5.6 | -2.1 | 3.5 | -0.4
Cc1nn(CC(=O)NCc2ccccc2)c(C)c1[N+](=O)[O-] | 5.0 | -8.2% | 0.702 | -3.8 | -3.0 | -3.0 | -0.1
CCCCOc1ccc(-c2nc(=S)[nH][nH]2)cc1 | -0.3 | 1.9% | 0.64 | -1.2 | -2.7 | -2.0 | -0.5
CCOC(=O)C1=C(c2ccccc2)N(C)C(=O)NC1c1ccc(O)c(OC)c1 (stereo unspecified) | 1.4 | 10.3% | 0.627 | 0.9 | -0.5 | -4.9 | 0.4
C=CCNC(=O)c1snnc1-c1ccccc1 | 3.6 | 0.8% | 0.703 | -1.3 | 5.6 | 0.3 | 0.3
COc1cc(OC)cc(-c2sc3ccc(OC)cc3c2-c2ccc(O)cc2)c1 | -2.6 | / | 0.718 | -0.2 | 0.4 | 3.1 | -0.7
O=C(CNC(=O)c1ccccc1Br)Nc1cccc(S(=O)(=O)Nc2ccccc2Cl)c1 | 1.7 | / | 0.684 | 5.5 | 0.9 | / | /
Nn1c(COc2ccc(Cl)cc2)nc2ccccc2c1=O | 0.0 | -3.8% | 0.654 | -0.8 | -14.2 | / | 1.2
COc1ccccc1N1CCN(CCN2C(=O)CC3(CCCC3)CC2=O)CC1 | 0.8 | / | 0.699 | -1.1 | -4.0 | -4.5 | 0.4
COc1ccc(S(=O)(=O)N2CCC(C(=O)N[C@@H](C)C(=O)NCc3ccc(F)cc3)CC2)cc1 | 1.4 | / | 0.658 | 1.0 | -1.6 | 4.8 | 0.6
CC(=O)c1sc(NC(=O)C2CC(=O)N(Cc3ccccc3)C2)nc1-c1ccccc1 (stereo unspecified) | 3.8 | -11.4% | 0.645 | 2.4 | -2.4 | 2.1 | 0.6
COc1cc(C2CC(=O)Oc3c(C(CCN4CCOCC4)c4ccc(N(C)C)cc4)c(OC)cc(OC)c32)cc(OC)c1OC (stereo unspecified) | 0.1 | / | 0.668 | -2.3 | 9.5 | -0.6 | 0.8
COc1ccc(S(=O)(=O)N(CC(=O)N2CCOCC2)Cc2ccccc2)cc1 | 3.3 | -4.5% | 0.683 | 0.8 | -9.1 | 3.0 | -1.2
Cc1ccc(-n2nc3c(c2NC(=O)c2ccco2)CS(=O)(=O)C3)c(C)c1 | 0.6 | / | 0.694 | -1.8 | -3.4 | -10.1 | 0.1
COc1ccc(C2C(Oc3ccccc3)C(=O)N2c2cc(C)ccc2C)cc1OC (stereo unspecified) | 3.5 | 5.5% | 0.681 | -1.9 | 1.6 | -6.8 | -0.1
Cc1ccccc1CN1CCN(Cc2cc(=O)c3ccccc3[nH]2)CC1CCO (stereo unspecified) | 1.4 | / | 0.617 | -1.3 | 4.7 | 4.4 | 0.1
O=C(NNC(=S)NC(=O)c1ccc(F)cc1)c1cccnc1 | 9.3 | 12.2% | 0.682 | -1.8 | -2.3 | 2.0 | -0.1
Cc1cccc(C(C)C)c1NC(=O)c1ccc(COc2ccc3c(C)cc(=O)oc3c2)cc1 | -35.2 | 19.4% | 0.668 | 3.5 | 8.3 | -1.6 | -0.4
CCCc1cc(=O)oc2cc(OCc3ccc(C(=O)O)o3)ccc12 | -51.0 | 0.6% | 0.645 | 0.8 | -10.9 | 4.6 | -0.5
CCOC(=O)C1CCN(C(=O)c2cc(S(=O)(=O)N3CCCCC3)ccc2C)CC1 | 2.7 | / | 0.736 | -4.2 | 8.4 | 0.5 | 0.1
Cc1cc(C(=O)OCC(=O)NC(C)c2ccccc2)c(C)o1 (stereo unspecified) | 3.2 | 2.7% | 0.666 | -2.1 | -4.4 | 0.5 | 0.4
CCOc1ccc(-c2cn(-c3ccccc3OC)c(=S)[nH]2)cc1 | 2.4 | / | 0.641 | 11.6 | 13.8 | 0.1 | 0.5
COc1ccccc1NS(=O)(=O)c1cccc(N2CC(O)=C(c3ccccc3)C2=N)c1 | 4.9 | 25.1% | 0.695 | -1.4 | 0.0 | -5.8 | 0.1
NS(=O)(=O)c1cc(C(=O)O)cc(N2CCCC2)c1Oc1ccccc1 | -31.7 | / | 0.705 | 2.3 | -2.2 | -3.1 | 0.7
COc1ccc(C(=O)N2CCN(c3ncnc4c(-c5ccccc5)nsc34)CC2)cc1 | -12.8 | -2.7% | 0.726 | 0.4 | -6.8 | / | /
Cc1cccc(OCCn2c(=O)sc3ccccc32)c1 | 1.1 | 1.2% | 0.701 | 0.5 | -7.0 | -0.9 | -1.2
Cc1nnc(Sc2cc(NCCCO)c([N+](=O)[O-])c3nonc23)s1 | 13.2 | ? | 0.693 | -3.4 | 42.6* | / | /
CCOc1ccc(S(=O)(=O)N2CCC(C(=O)N3CCN(c4ccccc4)CC3)CC2)cc1 | 1.6 | 9.0% | 0.689 | -2.2 | -3.0 | -1.9 | -0.1
COC(=O)CCCC1=CC2=CC(=O)C(C)(OC(=O)c3cccs3)C(=O)C2=CN1C1CCCCC1 (stereo unspecified) | 1.1 | ? | 0.7 | -9.0 | -6.3 | 2.1 | -0.2
CCOc1ccc(/C(O)=C2/C(=O)C(=O)N(c3nc(C)c(C)s3)C2c2ccco2)cc1 (stereo unspecified) | 3.7 | 17.7% | / | -11.8 | 11.7 | 1.7 | 0.2
CCOC(=O)C1=C(CSc2nc(C)cc(C)c2C#N)OC(N)=C(C#N)C1c1cccs1 (stereo unspecified) | 5.4 | 4.3% | 0.704 | / | / | -5.6 | -0.5
CCCC(=O)Nc1nc2ccc3nc(C)sc3c2s1 | -0.3 | -5.2% | 0.672 | -0.8 | -8.8 | -2.3 | -0.2
FC(F)(F)C(Oc1nc(Nc2ccc(Cl)cc2)nc(N2CCOCC2)n1)C(F)(F)F | 4.1 | 2.7% | 0.755 | -3.8 | 39.0 | 3.3 | -0.1
Cc1ccccc1S(=O)(=O)Cc1ccc(C(=O)N2CCN(C3CCCCC3)CC2)o1 | 5.4 | 26.3% | 0.748 | 0.6 | -1.3 | -2.5 | 0.0
COc1ccc(C2OC(=O)CC2C(=O)NCc2ccc(Cl)cc2)cc1OC (stereo unspecified) | -0.5 | / | 0.693 | 4.6 | -0.4 | -1.4 | 0.7
CCN(CC(=O)NC1CCS(=O)(=O)C1)S(=O)(=O)c1ccc2ccccc2c1 (stereo unspecified) | 7.3 | 15.6% | 0.729 | -1.0 | -4.2 | 0.3 | 0.3
Cc1cccc(C(C(=O)NC2CCCCC2)N(C(=O)c2csnn2)C2CC2)c1 (stereo unspecified) | 4.6 | / | 0.681 | 4.4 | -5.3 | -3.4 | 1.4
CCOC(=O)C1CCN(S(=O)(=O)c2ccc(NC(=O)c3ccco3)cc2)CC1 | -1.0 | / | 0.663 | -0.9 | -2.3 | -8.2 | 1.0
Cc1cc(C)cc(OCC(=O)Nc2ccc3c4c(cccc24)CC3)c1 | -4.2 | -14.4% | 0.731 | 1.3 | -2.5 | 1.7 | 0.1
CCN(CC)C(=O)CSc1nc2ccccc2c(=O)n1CC1CCCCC1 | 5.9 | 2.2% | 0.723 | 0.8 | -12.9 | 0.9 | 0.3
CCN1C(=O)N(S(=O)(=O)c2ccc(C)cc2)[C@@H](c2ccccc2)C(C(=O)OC)=C1C | 1.0 | 2.5% | / | -2.8 | 0.5 | -7.0 | 0.9
O=C(O)c1ccc(NS(=O)(=O)c2ccc(Cl)c(C(=O)Nc3ccccc3)c2)cc1 | 0.2 | / | 0.667 | -0.8 | -4.6 | -1.4 | -0.5
CCOc1ccc2[nH]c(=O)c(C(c3nnnn3Cc3ccco3)N3CCN(C)CC3)cc2c1 (stereo unspecified) | -193.3 | 20.3% | 0.681 | 0.3 | 0.1 | -22.0 | 0.0
OC(CNCCc1ccc(Cl)cc1)COCc1ccco1 (stereo unspecified) | 1.0 | -0.6% | 0.723 | 0.5 | 8.0 | -0.6 | 0.4
CC(C)c1ccc(CN(C(=O)c2ccco2)C2CCS(=O)(=O)C2)cc1 (stereo unspecified) | 4.2 | / | 0.648 | 1.1 | -6.3 | 3.7 | 1.4
CNc1c([N+](=O)[O-])cnn1-c1ccc(C)cc1 | 8.6 | 1.8% | 0.677 | -1.4 | 6.5 | 2.0 | -0.1
COc1ccc(OCC(O)CNC(=O)Nc2cc(C)cc(C)c2)cc1 (stereo unspecified) | 2.7 | -7.5% | 0.69 | -3.0 | 2.2 | 1.2 | 1.4
COc1ccccc1Cn1c(=S)[nH]c2cc(C(=O)N3CCN(C)CC3)ccc2c1=O | 3.1 | 18.2% | 0.657 | 0.6 | -4.0 | 2.5 | 1.2
COc1ccc(CNC(=O)COc2ccc(C)nc2[N+](=O)[O-])cc1 | 2.3 | 14.0% | 0.711 | -2.3 | -9.6 | 1.9 | 0.5
COC(=O)C/C=C/[C@@H](C)[C@@H](/C=N/O[C@H](C)c1cn([C@@H]2COC[C@H]2O)nn1)NS(=O)(=O)c1ccc(C)cc1 | / | ? | / | / | / | -6.6 | 0.0
Cc1ccc(/C=C/C(=O)NCCCn2ccnc2)cc1 | 1.7 | -9.3% | 0.68 | 1.5 | 3.6 | 0.0 | 0.9
CCCNC(=O)c1cc(-c2ccc(Br)cc2)on1 | -2.0 | -1.1% | 0.674 | -1.6 | -4.0 | 0.9 | -1.4
CCn1cc(C(=O)NC(=S)Nc2ccccc2Br)cn1 | 2.1 | -0.2% | 0.696 | 1.1 | -4.2 | 0.5 | -0.1

One compound at a time (already shown). Screens in order: UCH37 inh, Vif A3G, Ecoli growth, HNF4A DNA FP, Beta2AR agonist, LANA-H2B inh, A1 inh
Cc1ccccc1S(=O)(=O)Cc1ccc(C(=O)N2CCN(C3CCCCC3)CC2)o1 in the list: 5.4, 26.3%, 0.748, 0.6, -1.3, -2.5, 0.0
CCCCOc1ccc(-c2nc(=S)[nH][nH]2)cc1 in the list: -0.3, 1.9%, 0.64, -1.2, -2.7, -2.0, -0.5

Compound activity: PubChem, several laboratories
